High-throughput results (PubChem BioAssay)
HSV augment: HSV replication enhancement; actives 0.005% (n = 220,000); maximum fold increase; AID 1956; HSV replication augmentation in cells, fold increase;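 active means peak rise of 1.5-fold or more in the series; tested in PC3 cells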;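 further: first round at 10 µM; read as green reporter fluorescence; hits show the peak of a series up to 25 µM; 1 = signal of infected wells without compound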
PKD1 inh: blocks activity of human protein kinase D1; PKD1 kinase fluorescence polarization assay; inhibition, %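 (about 10 µM by stock and volumes)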; actives 0.056% (n = 200,000); AID 797;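 active means inhibition of 50% or more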;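 further: controls were vehicle for no effect and a reference inhibitor for full effect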
Insulin prom inh: TRM-6 insulin promoter activity inhibition; TRM-6 cells (human fetal islet line), insulin promoter-eGFP reporter, imaging; reporter expression induced with tamoxifen; inhibition, % at 2 µM; actives 0.9% (n = 130,000); AID 1273;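 active means inhibition above the mean plus 3 SD, with well images judged a real hit on visual review, cut at about 60% in these data, passing the limit was not always enough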
GALR2 agonist: GALR2 (human) receptor agonism | O43603 | GALR2-expressing cells, agonist activation read-out | activation, %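 (tested at 5 µM)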 | actives 0.48% (n = 140,000) | AID 803;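 active means above mean plus 3 SD of all compounds, about 5% in these data, not always enough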;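 further: 0% = vehicle buffer wells and 100% = reference agonist at full effect; tested in CHO reporter cells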
Target sequence (O43603 whole entry, looked up): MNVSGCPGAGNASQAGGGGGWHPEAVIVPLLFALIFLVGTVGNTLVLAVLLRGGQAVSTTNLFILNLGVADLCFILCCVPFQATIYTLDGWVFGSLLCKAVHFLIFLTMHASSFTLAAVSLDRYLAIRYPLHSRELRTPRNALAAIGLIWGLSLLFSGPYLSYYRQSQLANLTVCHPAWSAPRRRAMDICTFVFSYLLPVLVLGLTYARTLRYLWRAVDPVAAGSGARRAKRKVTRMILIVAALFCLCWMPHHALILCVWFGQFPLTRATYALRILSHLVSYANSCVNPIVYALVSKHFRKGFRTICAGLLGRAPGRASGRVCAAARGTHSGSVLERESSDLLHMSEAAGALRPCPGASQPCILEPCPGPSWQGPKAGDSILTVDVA
RGS16-Gao HTS: modulates binding between human RGS16 and Galphao. actives 0.38% (n = 220,000). binding response (% of control), % at 10 µM. AID 1441. bead-based flow cytometry RGS16-Galphao binding, fluorescence; actives lie on both sides. O15492+P09471;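 active means below 25% or above 175%, edge rows of some plates excepted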;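 further: Galphao activated by GDP with aluminum fluoride before binding; 100% = wells without compound and 0% = beads without RGS; some results beyond the cut were filed as inactive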
Target sequence (O15492 whole entry, looked up): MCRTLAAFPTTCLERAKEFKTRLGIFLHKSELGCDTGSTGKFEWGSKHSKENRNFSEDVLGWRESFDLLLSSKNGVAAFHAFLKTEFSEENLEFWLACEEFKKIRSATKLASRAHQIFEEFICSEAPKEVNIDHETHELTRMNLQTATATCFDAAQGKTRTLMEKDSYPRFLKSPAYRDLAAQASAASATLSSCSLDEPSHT
Target sequence (P09471 whole entry, looked up): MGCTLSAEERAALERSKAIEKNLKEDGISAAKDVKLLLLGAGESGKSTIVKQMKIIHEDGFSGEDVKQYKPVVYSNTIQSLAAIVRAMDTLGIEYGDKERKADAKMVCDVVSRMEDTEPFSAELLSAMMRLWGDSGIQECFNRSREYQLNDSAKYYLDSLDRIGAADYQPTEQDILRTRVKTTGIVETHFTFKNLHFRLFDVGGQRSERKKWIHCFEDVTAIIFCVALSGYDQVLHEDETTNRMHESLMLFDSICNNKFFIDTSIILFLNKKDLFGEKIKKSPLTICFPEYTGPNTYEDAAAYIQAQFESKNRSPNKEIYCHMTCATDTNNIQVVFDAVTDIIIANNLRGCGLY
Insulin prom inh cell count: further read-out of Insulin prom inh, marked with its call; normalized cell count, %; measured here: cell count, toxicity; reference of the scale not given here;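 cells exposed to compound for 48 h; stained nuclei by imaging scaled within each plate; lower means fewer cells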
HSV augment primary fold: also measured in HSV augment; calls as there; fold increase; compound at 10 µM; measured here: primary screen fold increase 10 uM; tested in PC3 cells;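 GFP signal in the first replicate; 1 = infected wells without compound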
The depositor's hits bear a star. This is a random part of the collection, and some 1.2% of all compounds hit somewhere here.

`Cc1c(NC(=O)CSc2nnc3c4ccccc4n(CCc4ccccc4)c3n2)c(=O)n(-c2ccccc2)n1C` gave HSV augment inactive, PKD1 inh 21, Insulin prom inh 27, GALR2 agonist -0.3, RGS16-Gao HTS 101, Insulin prom inh cell count 105 and HSV augment primary fold 0.64.
C=CCOc1ccc(Cl)cc1CNC1CCCC1 was read as HSV augment inactive, PKD1 inh 3, RGS16-Gao HTS 103 and HSV augment primary fold 0.95.
COc1cccc(-n2nc3c(=S)[nH]nc(C)c3c2C)c1 was read as PKD1 inh -5, Insulin prom inh 15, GALR2 agonist -3.8, RGS16-Gao HTS 100 and Insulin prom inh cell count 98.
CC(=O)/C(=N/Nc1ccccc1C)N1CCOCC1 was read as HSV augment inactive, PKD1 inh 6, GALR2 agonist -2.0, RGS16-Gao HTS 101 and HSV augment primary fold 0.88.
Screening CC(C)N(C1=CC(=O)OC12CCCCC2)C(C)C returned HSV augment inactive, RGS16-Gao HTS 100 and HSV augment primary fold 1.
For Cc1nonc1CN(C)C(=O)c1ccc(OC2CCN(Cc3ccccn3)CC2)cc1 the results were HSV augment inactive, PKD1 inh 4, RGS16-Gao HTS 99 and HSV augment primary fold 1.2.
Fc1ccccc1CNc1cc(Cl)cc(Cl)c1 was read as HSV augment inactive, PKD1 inh -9, GALR2 agonist -1.9, RGS16-Gao HTS 100 and HSV augment primary fold 0.91.
For OC12CCCCC1C(c1ccc3c(c1)OCO3)N(Cc1ccc(F)cc1)CC2 (stereo not given) the results were HSV augment inactive, PKD1 inh -5, Insulin prom inh -27, GALR2 agonist 0.4, RGS16-Gao HTS 100, Insulin prom inh cell count 89 and HSV augment primary fold 0.86.
`Cc1cccc(C2Nc3ccccc3C(=O)N2c2ccc(F)cc2)n1` (stereo not given) gave HSV augment inactive, PKD1 inh -3, Insulin prom inh 14, GALR2 agonist -1.6, RGS16-Gao HTS 102, Insulin prom inh cell count 140 and HSV augment primary fold 0.94.
CCOc1ccc(CN(C)CC(=O)Nc2cc(C)c(C)cc2[N+](=O)[O-])cc1 was read as HSV augment inactive, PKD1 inh -5, Insulin prom inh -135, RGS16-Gao HTS 103, Insulin prom inh cell count 121 and HSV augment primary fold 0.9.
For CCOC(=O)c1c(-c2ccncc2)csc1N the results were HSV augment inactive, PKD1 inh -5, Insulin prom inh -460, GALR2 agonist -2.1, RGS16-Gao HTS 113, Insulin prom inh cell count 65 and HSV augment primary fold 0.9.
`CCc1ccc(OCCOCC(O)CN(CCO)CCO)cc1` (stereo not given) gave HSV augment inactive, PKD1 inh -4, Insulin prom inh 40, GALR2 agonist -0.8, RGS16-Gao HTS 113, Insulin prom inh cell count 78 and HSV augment primary fold 1.
CS(=O)(=O)N1CCN(c2ccc([N+](=O)[O-])c(NCc3cccnc3)c2)CC1 was read as HSV augment inactive, PKD1 inh -7, RGS16-Gao HTS 100 and HSV augment primary fold 1.
CN1CC2(C)CN(C(c3ccccc3)c3ccccc3)CC(C)(C1)C2O (stereo not given) was read as HSV augment inactive, PKD1 inh -10, Insulin prom inh 4, GALR2 agonist -0.2, RGS16-Gao HTS 76, Insulin prom inh cell count 114 and HSV augment primary fold 0.98.
FCCCOc1ccc(-c2ccnc3ncnn23)cc1 was read as HSV augment inactive, PKD1 inh 3, Insulin prom inh 26, RGS16-Gao HTS 100, Insulin prom inh cell count 56 and HSV augment primary fold 0.99.
Cc1ccc(C)c(N2CCN(c3nc4ccccc4c(=O)n3Cc3ccccc3)CC2)c1 was read as HSV augment inactive, PKD1 inh 0, GALR2 agonist -3.7, RGS16-Gao HTS 101 and HSV augment primary fold 0.9.
`CC1CCCCC1NC(=O)c1cc2ccccc2o1` (stereo not given) gave PKD1 inh -3, Insulin prom inh -54, GALR2 agonist -1.5, RGS16-Gao HTS 100 and Insulin prom inh cell count 79.
`O=C(NN1CCN(Cc2ccccc2Cl)CC1)c1ccc(Br)cc1` gave HSV augment inactive, PKD1 inh 1, RGS16-Gao HTS 100 and HSV augment primary fold 1.1.
For CCOC(=O)c1ccc(NC(=O)COc2ccccc2CNCCO)cc1 the results were HSV augment inactive, PKD1 inh -3, RGS16-Gao HTS 101 and HSV augment primary fold 0.82.
Screening COc1ccc(C(=O)/C(=C/c2cccs2)c2nc3ccccc3o2)cc1 returned HSV augment inactive, PKD1 inh -5, Insulin prom inh -12, GALR2 agonist -3.8, RGS16-Gao HTS 105, Insulin prom inh cell count 115 and HSV augment primary fold 1.
Screening CCOC(=O)c1c(N)c(C#N)c2n1CCCCC2 returned HSV augment inactive, PKD1 inh -4, Insulin prom inh 69, GALR2 agonist -1.3, RGS16-Gao HTS 105, Insulin prom inh cell count 108 and HSV augment primary fold 0.82.
`Cc1cc(NC(=O)CSc2nnc(-c3cccnc3)n2Cc2ccccc2)no1` gave HSV augment inactive, PKD1 inh -2, RGS16-Gao HTS 96 and HSV augment primary fold 0.96.
Screening O=S1(=O)CCC(NC(=S)N2CCCCCC2)C1 (stereo not given) returned HSV augment inactive, PKD1 inh -6, GALR2 agonist -1.3, RGS16-Gao HTS 44 and HSV augment primary fold 1.2.
Screening O=[N+]([O-])c1cccc(Cl)c1NCCNc1ncc(C(F)(F)F)cc1Cl returned HSV augment inactive, PKD1 inh -4, Insulin prom inh -66, GALR2 agonist -1.3, RGS16-Gao HTS 94, Insulin prom inh cell count 81 and HSV augment primary fold 0.87.
For CNC(=O)CC12CC3CC(CC(C3)C1)C2 the results were HSV augment inactive, PKD1 inh -1, Insulin prom inh -3, GALR2 agonist 0.0, RGS16-Gao HTS 108, Insulin prom inh cell count 137 and HSV augment primary fold 1.1.
Screening O=C(CCN1CCC(c2ccccc2)C1)c1ccccc1 (stereo not given) returned HSV augment inactive, PKD1 inh -5, Insulin prom inh -7, GALR2 agonist -1.6, RGS16-Gao HTS 97, Insulin prom inh cell count 99 and HSV augment primary fold 0.86.
For CC(=O)/C(=C(/O)c1ccccc1)c1nc2ccccc2[nH]1 the results were HSV augment inactive, PKD1 inh -7, RGS16-Gao HTS 102 and HSV augment primary fold 0.9.
For CCN(CC)C(=O)CSc1ncnc2sccc12 the results were HSV augment inactive, PKD1 inh -4, RGS16-Gao HTS 96 and HSV augment primary fold 0.99.
For CCOc1ccc2nc(NC(=O)C(CC)Sc3nc(C)cc(=O)[nH]3)sc2c1 (stereo not given) the results were HSV augment inactive, PKD1 inh -4, Insulin prom inh -3, GALR2 agonist -3.0, RGS16-Gao HTS 102, Insulin prom inh cell count 46 and HSV augment primary fold 0.81.
`O=[N+]([O-])c1ccc(O)c(C=Nc2ccc3oc(Cc4ccc(Cl)cc4)nc3c2)c1` gave HSV augment inactive, PKD1 inh -11, RGS16-Gao HTS 98 and HSV augment primary fold 1.
For N#C/C(=C\c1ccc[nH]1)C(=O)N1CCCCC1 the results were HSV augment inactive, RGS16-Gao HTS 109 and HSV augment primary fold 0.93.
For COC(=O)c1cc2ccsc2n1CC(=O)N(C)c1ccccc1 the results were HSV augment inactive, PKD1 inh 1, Insulin prom inh -122, GALR2 agonist -4.8, RGS16-Gao HTS 104, Insulin prom inh cell count 89 and HSV augment primary fold 0.75.
Screening CCOC(=O)CN1CC23C=CC(O2)C(C(=O)NC2CCCCC2)C3C1=O (stereo not given) returned HSV augment inactive, PKD1 inh -2, Insulin prom inh 49, GALR2 agonist -1.1, RGS16-Gao HTS 108, Insulin prom inh cell count 99 and HSV augment primary fold 0.96.
`CC(C)Cn1c(SCC(=O)N2CCN(S(=O)(=O)c3ccccc3)CC2)nc2ccccc21` gave HSV augment inactive, PKD1 inh -5, Insulin prom inh -32, GALR2 agonist -2.3, RGS16-Gao HTS 112, Insulin prom inh cell count 96 and HSV augment primary fold 0.87.
Screening COc1ccc(Cl)cc1C(=O)Nc1nc2ccc(S(C)(=O)=O)cc2s1 returned HSV augment inactive, PKD1 inh -4, Insulin prom inh -27, RGS16-Gao HTS 100, Insulin prom inh cell count 71 and HSV augment primary fold 0.97.
O=C(CCC1CCCCC1)Nc1ncn[nH]1 was read as HSV augment inactive, PKD1 inh -1, Insulin prom inh -40, GALR2 agonist -2.7, RGS16-Gao HTS 105, Insulin prom inh cell count 83 and HSV augment primary fold 0.97.
For COc1ccccc1NC(=O)C1=C(C)NC(SCC(=O)Nc2ccc(C(=O)O)cc2)=C(C#N)C1c1cccs1 (stereo not given) the results were HSV augment inactive, RGS16-Gao HTS 97 and HSV augment primary fold 0.95.
COc1ccccc1NC(=O)CCN1CC(C)OC(C)C1 (stereo not given) was read as HSV augment inactive, PKD1 inh -11, Insulin prom inh -267, GALR2 agonist -0.9, RGS16-Gao HTS 102, Insulin prom inh cell count 52 and HSV augment primary fold 0.99.
CCCCC(=O)OCCNC(=O)c1cc2ccccc2oc1=O was read as HSV augment inactive, PKD1 inh -6, GALR2 agonist -0.5, RGS16-Gao HTS 102 and HSV augment primary fold 1.
`O=c1c2ccccc2nnn1Cc1ccc(Br)cc1` gave HSV augment inactive, PKD1 inh 6, Insulin prom inh 25, RGS16-Gao HTS 107, Insulin prom inh cell count 121 and HSV augment primary fold 0.87.
For CCSc1ccccc1C(=O)N1CCN(c2ccc([N+](=O)[O-])cc2)CC1 the results were HSV augment inactive, PKD1 inh 5, RGS16-Gao HTS 1 and HSV augment primary fold 1.
For CCOc1cc(NC(=S)NCCCOC)c(OCC)cc1NC(=O)c1cccs1 the results were HSV augment inactive, PKD1 inh 3, Insulin prom inh -100, GALR2 agonist 0.6, RGS16-Gao HTS 103, Insulin prom inh cell count 110 and HSV augment primary fold 0.85.
`CCC(C)(C)NC(=O)c1ccccc1Oc1ccccc1` gave HSV augment inactive, PKD1 inh 2, RGS16-Gao HTS 103 and HSV augment primary fold 1.
Screening N#C/C(=C(/O)c1cccs1)c1nnc2n1CCCCC2 returned HSV augment inactive, PKD1 inh -5, RGS16-Gao HTS 102 and HSV augment primary fold 0.94.
CCOC(=O)c1c(-c2ccccc2)nc2ccccn12 was read as HSV augment inactive, PKD1 inh -1, Insulin prom inh -32, GALR2 agonist -0.5, RGS16-Gao HTS 100, Insulin prom inh cell count 84 and HSV augment primary fold 0.87.
Cc1ccc(N(Cc2cc(=O)[nH]c3ccccc23)C(=O)C(C)C)cc1 was read as HSV augment inactive, RGS16-Gao HTS 103 and HSV augment primary fold 1.1.
For CC1(C)Cc2ccccc2-c2nnnn21 the results were HSV augment inactive, PKD1 inh -3, Insulin prom inh -71, GALR2 agonist -4.1, RGS16-Gao HTS 100, Insulin prom inh cell count 139 and HSV augment primary fold 1.1.
`O=C(NCc1ccccc1)C1=C[C@@H](c2csc3ccccc23)C[C@@H](OCc2ccc(CO)cc2)O1` gave HSV augment inactive, PKD1 inh 1, RGS16-Gao HTS 115 and HSV augment primary fold 0.81.
CCN1CCCC1CNC(=O)c1cc2c(-c3cccc(OC)c3)nn(C)c2s1 (stereo not given) was read as HSV augment inactive, PKD1 inh -5, Insulin prom inh 15, GALR2 agonist -1.3, RGS16-Gao HTS 102, Insulin prom inh cell count 84 and HSV augment primary fold 0.96.

Five structures already listed, ordered by formula weight, high to low:
For Cc1nonc1CN(C)C(=O)c1ccc(OC2CCN(Cc3ccccn3)CC2)cc1 the results were HSV augment inactive, PKD1 inh 4, RGS16-Gao HTS 99 and HSV augment primary fold 1.2.
CCN1CCCC1CNC(=O)c1cc2c(-c3cccc(OC)c3)nn(C)c2s1 (stereo not given) was read as HSV augment inactive, PKD1 inh -5, Insulin prom inh 15, GALR2 agonist -1.3, RGS16-Gao HTS 102, Insulin prom inh cell count 84 and HSV augment primary fold 0.96.
Cc1ccc(N(Cc2cc(=O)[nH]c3ccccc23)C(=O)C(C)C)cc1 was read as HSV augment inactive, RGS16-Gao HTS 103 and HSV augment primary fold 1.1.
COc1ccccc1NC(=O)CCN1CC(C)OC(C)C1 (stereo not given) was read as HSV augment inactive, PKD1 inh -11, Insulin prom inh -267, GALR2 agonist -0.9, RGS16-Gao HTS 102, Insulin prom inh cell count 52 and HSV augment primary fold 0.99.
Screening CCOC(=O)c1c(N)c(C#N)c2n1CCCCC2 returned HSV augment inactive, PKD1 inh -4, Insulin prom inh 69, GALR2 agonist -1.3, RGS16-Gao HTS 105, Insulin prom inh cell count 108 and HSV augment primary fold 0.82.

Quoted at random: two compounds from above, in no set order.
Screening O=[N+]([O-])c1cccc(Cl)c1NCCNc1ncc(C(F)(F)F)cc1Cl returned HSV augment inactive, PKD1 inh -4, Insulin prom inh -66, GALR2 agonist -1.3, RGS16-Gao HTS 94, Insulin prom inh cell count 81 and HSV augment primary fold 0.87.
O=C(CCC1CCCCC1)Nc1ncn[nH]1 was read as HSV augment inactive, PKD1 inh -1, Insulin prom inh -40, GALR2 agonist -2.7, RGS16-Gao HTS 105, Insulin prom inh cell count 83 and HSV augment primary fold 0.97.
